# Screening data deposited in PubChem BioAssay by several laboratories.
# Ecoli rRNA inh: selective bacterial rRNA inhibition in E. coli. GFP signal change (wild-type ribosome), % (concentration not given with the values). actives 1.6% (n = 350,000). E. coli WT GFP vs humanized-ribosome RFP mutants, fluorescence, 24 h; hits give low values; DMSO median 0, no signal -100;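 active = significant combined selectivity score with lowered wild-type GFP, culture density cut under 30%, mutant RFP and density less affected; inactive = any of these conditions unmet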; also: one replicate is shown; some compounds called inactive have numbers as strong as hits
# ALR H2O2 inh: inhibitors of human sulfhydryl oxidase ALR; actives 3.8% (n = 290,000); AID 485317; inhibition, % (no concentration beside the values); purified ALR, DTT oxidation, H2O2 HRP-luminol luminescence; P55789;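 active = mean and each replicate at 75% or more; inconclusive = only one of the two met; inactive = neither met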;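 also: stock transfer was 7.5 nL into about 7.5 µL; 0% = neutral wells and 100% = wells with inactivated enzyme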
# Target sequence (P55789 whole entry, looked up): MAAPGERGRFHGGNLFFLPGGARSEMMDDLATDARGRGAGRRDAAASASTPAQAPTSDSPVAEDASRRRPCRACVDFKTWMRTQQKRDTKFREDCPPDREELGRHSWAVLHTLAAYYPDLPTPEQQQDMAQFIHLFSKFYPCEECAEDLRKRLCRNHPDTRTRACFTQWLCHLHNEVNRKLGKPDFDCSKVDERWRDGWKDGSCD
# HNF4A DNA FP: change in binding of human HNF4 alpha to DNA; P41235; HNF4a-FITC DNA binding, fluorescence polarization, 1 h; activity change, % at 10 µM; actives 0.3% (n = 360,000); AID 1224865; in the data active = activity change above about 30%, passing the limit was not always enough;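 also: controls were the assay level and a saturating level of protein; the project sought stronger binding though the title names inhibitors; some compounds called inactive have numbers as strong as hits; positive values seem to mean higher polarization but the record does not say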
# Ecoli growth: inhibitors of Escherichia coli growth; OD600, 23 h; hits give low values; OD600 absorbance (no concentration beside the values); actives 0.21% (n = 330,000); AID 1053175;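 active = OD600 absorbance below the run mean of sample wells minus 3.6 SD, in any replicate, cut at about 0.56 in these data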;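 also: stock transfer was 300 nL into about 60 µL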
# FGF22 binding: shifts melting point of recombinant human FGF22; AID 651658; calls only at 9.99 µM; actives 1.5% (n = 340,000); recombinant FGF22 thermal shift, SYPRO orange fluorescence; percent of sucrose octasulfate shift, DMSO zero; Q9HCT0;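 active = melting point raised past a set limit in the mean and every replicate; inconclusive = no clear call; three in four hits are not shown here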
# Target sequence (Q9HCT0 whole entry, looked up): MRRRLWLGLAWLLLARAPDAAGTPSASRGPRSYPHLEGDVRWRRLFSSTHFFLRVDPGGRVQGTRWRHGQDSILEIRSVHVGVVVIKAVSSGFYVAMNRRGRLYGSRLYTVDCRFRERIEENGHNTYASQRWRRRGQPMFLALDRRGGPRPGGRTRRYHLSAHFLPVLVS
# Vif A3G: inhibitors of Vif binding to APOBEC3G peptide, primary screen, biochemical, TR-FRET, GST-Vif 1-94, biotin-A3G peptide, dose response retest (AID 1117319); TR-FRET GST-Vif / biotin-A3G peptide binding; higher % means a stronger effect; test concentration not given here; strong numbers were not always called active; actives 0.57% (n = 260,000); inhibition, %; hits with a dose series show IC50 in µM;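 active = above the screen mean plus three standard deviations and confirmed in dose response; inconclusive = results disagree or hit not tested in dose response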;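 also: Vif residues 1-94 fused to GST binding biotinylated APOBEC3G peptide 110-148; 0% = full assay without inhibitor and 100% = GST in place of GST-Vif; retest series ran down from 100 µM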
# MLL AF4-AF9 inh: inhibitors of human MLL-AF4/AF9 interaction | AID 651704 | inhibition, % at 10 µM | actives 0.47% (n = 350,000) | AlphaScreen, biotin-AF4 peptide binding to FLAG-AF9 | P42568;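 active = every replicate reaching a set inhibition limit, whatever the replicate mean, cut at about 25% in these data; inconclusive = mean inhibition reaches that limit but some replicates miss it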;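 also: 0% = plate neutral control median and 100% = total signal loss; the record names both 10 and 1 µM as test concentration; the first replicate is given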
# Target sequence (P42568 whole entry, looked up): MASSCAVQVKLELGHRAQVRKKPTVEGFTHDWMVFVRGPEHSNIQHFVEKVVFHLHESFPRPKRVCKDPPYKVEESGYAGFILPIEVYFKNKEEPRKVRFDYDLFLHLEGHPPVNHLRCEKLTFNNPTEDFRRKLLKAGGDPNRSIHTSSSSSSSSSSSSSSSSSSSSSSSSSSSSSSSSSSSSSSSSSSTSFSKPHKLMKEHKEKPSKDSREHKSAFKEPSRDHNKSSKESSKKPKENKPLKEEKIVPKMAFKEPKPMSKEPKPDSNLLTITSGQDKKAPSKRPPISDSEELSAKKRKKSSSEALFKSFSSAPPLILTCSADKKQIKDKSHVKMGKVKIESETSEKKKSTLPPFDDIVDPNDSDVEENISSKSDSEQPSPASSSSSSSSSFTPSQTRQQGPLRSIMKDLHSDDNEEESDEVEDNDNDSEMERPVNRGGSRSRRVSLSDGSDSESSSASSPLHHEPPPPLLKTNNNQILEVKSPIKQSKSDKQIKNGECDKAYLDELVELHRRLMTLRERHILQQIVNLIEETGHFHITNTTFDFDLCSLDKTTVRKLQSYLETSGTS
# Ecoli rRNA inh OD600: recorded beside Ecoli rRNA inh, whose call it bears; OD600 change, %; measured here: OD600 growth;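 optical density of the mix in the first replicate; 0 = DMSO median and -100 = no signal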
# Ecoli rRNA inh RFP: recorded beside Ecoli rRNA inh, whose call it bears; RFP signal change, %; measured here: RFP humanized mutant strains;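 first replicate; 0 = DMSO median and -100 = no signal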
# * = called active by the depositor; i = inactive; ? = inconclusive; · = not tested or not shown; & = joins results of further samples. The list is partial. The share of hits here may be higher or lower than overall.
Ecoli rRNA inh	Ecoli rRNA inh OD600	Ecoli rRNA inh RFP	ALR H2O2 inh	HNF4A DNA FP	Ecoli growth	FGF22 binding	Vif A3G	MLL AF4-AF9 inh	smiles
2.2	-0.4	-0.6	-4.6	-5.8	0.67	i	·	-10.6	COc1cc2c(cc1NC(=O)C(C)OC(=O)/C=C/c1ccc(OC(F)F)cc1)oc1ccccc12 (centres undefined)
-36.3*	4.8*	4.3*	·	·	·	i	·	3.6	C[C@@H]1CCCCO[C@H](CN(C)C)[C@H](C)CN([C@@H](C)CO)C(=O)c2cc(NC(=O)Nc3cccc4ccccc34)ccc2O1
-7.9	-4.8	4.0	-1.3	3.1	0.715	i	-11.7%	0.1	CCOc1ccc(N(CC(=O)Nc2ccc(CC)cc2)S(=O)(=O)c2c(C)[nH]c(=O)[nH]c2=O)cc1
1.6	0.0	-1.1	·	·	·	i	·	-5.8	C[C@H]1CN([C@@H](C)CO)C(=O)Cc2cc(NS(=O)(=O)c3cn(C)cn3)ccc2O[C@@H]1CN(C)C(=O)Nc1ccc2c(c1)OCO2
-3.6	3.7	-0.7	-6.7	-1.4	0.673	i	-5.6%	-1.5	CN1CCN(NC(=O)Nc2ccc(Br)cc2)CC1
·	·	·	-1.8	1.8	0.72	·	5.0%	·	Cc1nc2ncnn2c(N2CCN(C(c3ccccc3)c3ccccc3)CC2)c1C
-1.9	0.7	-1.4	-7.2	-3.0	0.721	·	-1.8%	·	Cc1ccc(NC(=O)c2ccc(-c3nn(C)c(=O)c4ccccc34)cc2)cc1
·	·	·	0.5	1.5	·	·	3.6%	·	O=c1oc2ccccc2c2c1C(c1ccc(Cl)cc1)Nc1ccc3ccccc3c1-2 (centres undefined)
·	·	·	-6.4	-1.0	0.724	·	-0.3%	·	O=C(O)COc1ccc(S(=O)(=O)c2ccc(OCC(=O)O)cc2)cc1
3.2	14.1	2.8	·	-5.1	·	i	·	-1.2	C#CCN(CC(=O)OCC)S(=O)(=O)CCNC1CC1
-1.8	4.8	-4.7	·	-3.1	·	i	3.8%	-1.8	Cc1ccc2cccc([N+](=O)[O-])c2n1
-12.6	-10.4	-11.0	-2.4	1.3	0.643	i	·	-18.1	Cc1cc(=O)oc2ccc(OCc3ccccc3)cc12
·	·	·	·	4.6	0.739	·	?	·	CCN1CCCC1CN(Cc1cc2ccc(C)c(C)c2[nH]c1=O)C(=O)Nc1ccccc1OC (centres undefined)
8.6	20.4	-2.9	-9.6	0.0	0.744	i	-0.5%	-3.1	O=C1CC(c2ccc(S(=O)(=O)NC3CC3)cc2)CN1 (centres undefined)
6.5	6.8	-1.9	99.1*	0.8	·	i	·	-1.8	COc1cc(/C=N/NC(=O)C2CCN(CC(O)COCc3ccccc3)CC2)ccc1O (centres undefined)
-4.5	-2.0	0.5	-1.0	-2.5	0.709	i	0.8%&-9.2%	-42.6	CCC1CCCCN1S(=O)(=O)c1ccc(S(=O)(=O)N(Cc2cccs2)C2CC2)cc1 (centres undefined)
·	·	·	-12.9	-1.2	0.706	·	·	·	CCN(CC)S(=O)(=O)c1ccc(OC)c(NC(=O)COc2ccc3c(C)cc(=O)oc3c2)c1
9.0	2.7	7.3	10.6	-0.3	0.672	i	12.8%	1.5	CCOc1ccc(N2C(=O)CC(Sc3ccccc3C(=O)O)C2=O)c([N+](=O)[O-])c1 (centres undefined)
0.3	-2.9	-0.4	·	·	·	i	·	4.4	CNC[C@@H]1Oc2ccc(NC(=O)Cc3cn(C)c4ccccc34)cc2C(=O)N([C@H](C)CO)C[C@@H]1C
-18.4	-45.6	-7.7	·	1.7	·	i	3.4%	-0.1	Cc1ccc2c(c1)S(=O)(=O)N(C)C(c1ccccc1)=C2
-4.5	-7.9	-4.2	·	1.4	0.719	i	-8.6%	-3.1	CC(=O)Nc1cc2c(cc1Cl)-c1ccccc1C2
·	·	·	-4.3	2.2	0.657	·	-2.8%	·	COc1ccc(OCCCC(=O)Oc2ccc(OC)cc2)cc1
-4.8	-42.2	7.8	·	·	·	i	·	1.7	COc1ccc(-c2ccc([C@@H]3[C@@H](CO)N4CCCCN(C(=O)c5ccc(F)cc5)C[C@H]34)cc2)cc1
·	·	·	·	-2.7	0.65	i	11.9%	-0.9	Cc1cc(NC(=O)C(C)SCC(=O)OCC(=O)Nc2c(C)cccc2C(C)C)no1 (centres undefined)
-8.8	-8.5	-14.9	-18.5	-2.3	0.704	i	-2.0%	2.1	COCCNS(=O)(=O)c1ccc(-c2ccc(C)cc2)cc1
·	·	·	22.5	1.2	0.701	i	13.3%	-1.9	O=C(CCCCCNC(=O)c1ccccc1)C[N+](=O)[O-]
1.0	-1.0	-2.1	·	·	·	i	·	0.4	C[C@@H]1CN([C@H](C)CO)C(=O)c2cccc(NC(=O)Nc3ccccc3)c2O[C@@H]1CN(C)Cc1ccncc1
11.3	5.4	-9.7	·	0.1	0.683	i	6.5%	3.4	CCOC(=O)c1c(NC(=O)Cn2cnc([N+](=O)[O-])n2)sc2c1CCCC2
2.6	-1.6	1.8	·	·	·	i	·	1.0	C[C@H]1CN([C@@H](C)CO)C(=O)CCCn2nncc2CO[C@@H]1CN(C)C(=O)c1cc(-c2ccccc2)on1
·	·	·	-9.1	1.3	0.776	·	-1.0%	·	O=C(Cc1coc2ccc3ccccc3c12)N1CCc2ccccc21
-18.3	-31.9	6.2	·	·	·	i	·	1.7	C[C@H](CO)N1C[C@H](C)[C@@H](CN(C)CC2CCCCC2)Oc2ccc(NC(=O)NC3CCCCC3)cc2CC1=O
3.0	3.3	-2.2	·	-6.0	·	i	25.7%	-1.1	NC(=O)[C@@H]1CCCCNc2c(F)cc([N+](=O)[O-])cc2C(=O)N[C@@H](CC(=O)O)C(=O)NCC(=O)N1
·	·	·	-2.2	-2.6	0.675	·	1.3%	·	O=C(C1CCCN(Cc2ccccc2C(F)(F)F)C1)N1CCCCC1 (centres undefined)
·	·	·	·	3.5	0.661	·	-1.7%	·	O=C(CCC1CCCC1)N1CCN(S(=O)(=O)Cc2ccccc2)CC1
·	·	·	16.1	3.5	·	i	·	-2.7	CCO[C@H]1OC(C(=O)NCc2nc3ccccc3[nH]2)=C[C@@H](c2cn(C(C)=O)c3ccccc23)[C@@H]1CCCO
·	·	·	-6.1	0.2	0.643	·	6.6%	·	Cc1nnc(NCc2ccco2)c2ccccc12
·	·	·	·	-23.8	0.706	·	?	·	O=C(CN1CCCCC1)Nc1ccccc1
1.8	4.4	2.0	-3.8	-2.5	0.639	i	28.4%	7.2	O=C1CSC(=O)N1CC(O)COc1ccc(Cl)cc1 (centres undefined)
-20.2*	-16.3*	2.7*	-9.4	0.1	·	i	·	11.4	CCCC[C@@H]1CNCCN1CCc1cccc2ccccc12
·	·	·	98.1*	3.1	0.666	·	26.1%	·	COc1ccccc1CNc1ccc(N2CCCCC2)cc1
·	·	·	0.3	-4.5	0.701	·	22.5%	·	CCN(CC)C(=O)C1CCCN(Cc2ccc(F)c(F)c2)C1 (centres undefined)
6.3	-6.0	-1.6	-16.2	-1.1	0.694	i	-2.1%	2.6	CCOC(=O)C1=C(C)NC(C)=C(C(=O)OCC)C1C(=O)OCC(=O)NCCc1ccccc1
-0.1	-4.3	1.9	·	-5.3	·	i	·	7.5	CN(C)C(=O)c1cccc(-c2cnc3sc(NCc4ccc5c(c4)OCO5)nn23)c1
·	·	·	16.6	0.9	0.685	·	·	·	CCN(CC)CCN(C(=O)c1ccc(S(=O)(=O)N2CCCCC2)cc1)c1nc2cc3c(cc2s1)OCO3
3.9	3.2	-1.1	·	-0.1	0.677	i	5.5%	0.5	Cc1ccc(-c2nn(Cc3ccccc3)cc2C(=O)NCC2CCCO2)cc1 (centres undefined)
-13.3	-9.4	-8.3	-7.5	3.8	0.699	i	·	4.3	CCOC(=O)c1sc2cc([N+](=O)[O-])cc(SCCO)c2c1N
-6.1	-17.0	-0.9	-10.7	0.8	0.69	i	·	0.6	O=C(c1ccc(CS(=O)c2ccccc2Cl)o1)N1CCCCCC1 (centres undefined)
-0.4	0.6	0.1	·	·	·	i	·	-3.0	CC(C)NC(=O)N1[C@@H]2c3ccc(-c4ccccc4F)c(=O)n3C[C@@H]2[C@@H](CO)[C@@H]1C(=O)NC1CCC1
-15.5	-13.6	-3.3	·	4.7	0.688	i	12.0%	-1.3	COc1ccc(-c2ccc(-c3cc(=O)oc4cc(OC)c(OC)c(OC)c34)cc2)cc1OC
·	·	·	-7.0	1.9	0.728	·	1.9%	·	COC(=O)[C@H](C)NC(=O)Nc1ccccc1F

# Some of these compounds in order of length of the SMILES, ascending.
Ecoli rRNA inh	Ecoli rRNA inh OD600	Ecoli rRNA inh RFP	ALR H2O2 inh	HNF4A DNA FP	Ecoli growth	FGF22 binding	Vif A3G	MLL AF4-AF9 inh	smiles
·	·	·	-2.2	-2.6	0.675	·	1.3%	·	O=C(C1CCCN(Cc2ccccc2C(F)(F)F)C1)N1CCCCC1 (centres undefined)
-0.1	-4.3	1.9	·	-5.3	·	i	·	7.5	CN(C)C(=O)c1cccc(-c2cnc3sc(NCc4ccc5c(c4)OCO5)nn23)c1
-18.3	-31.9	6.2	·	·	·	i	·	1.7	C[C@H](CO)N1C[C@H](C)[C@@H](CN(C)CC2CCCCC2)Oc2ccc(NC(=O)NC3CCCCC3)cc2CC1=O
-0.4	0.6	0.1	·	·	·	i	·	-3.0	CC(C)NC(=O)N1[C@@H]2c3ccc(-c4ccccc4F)c(=O)n3C[C@@H]2[C@@H](CO)[C@@H]1C(=O)NC1CCC1

# Among those listed so far, 2 have an aryl thioether with sulfur outside any ring:
Ecoli rRNA inh	Ecoli rRNA inh OD600	Ecoli rRNA inh RFP	ALR H2O2 inh	HNF4A DNA FP	Ecoli growth	FGF22 binding	Vif A3G	MLL AF4-AF9 inh	smiles
9.0	2.7	7.3	10.6	-0.3	0.672	i	12.8%	1.5	CCOc1ccc(N2C(=O)CC(Sc3ccccc3C(=O)O)C2=O)c([N+](=O)[O-])c1 (centres undefined)
-13.3	-9.4	-8.3	-7.5	3.8	0.699	i	·	4.3	CCOC(=O)c1sc2cc([N+](=O)[O-])cc(SCCO)c2c1N

# Additional records follow:
Ecoli rRNA inh	Ecoli rRNA inh OD600	Ecoli rRNA inh RFP	ALR H2O2 inh	HNF4A DNA FP	Ecoli growth	FGF22 binding	Vif A3G	MLL AF4-AF9 inh	smiles
·	·	·	-1.0	0.0	0.688	·	-1.9%	·	CCOc1cc(CNc2ccccc2)cc(Br)c1OCc1ccccc1F
10.8	6.0	-1.4	1.0	-0.5	0.686	i	·	-1.7	O=C(CN1C(=O)C2CC=CCC2C1=O)Nc1ccc(S(=O)(=O)Nc2nccs2)cc1 (centres undefined)
8.7	7.2	-0.5	-20.8	2.1	0.666	i	-1.9%	-11.6	CCOc1cc(C(=S)N2CCCC2)ccc1OC
·	·	·	-3.1	-0.6	0.786	·	3.5%	·	CC(C)C(=O)Nc1cc2c(cc1C(=O)c1ccccc1)OCCO2
